GIV Gai3 FP = inhibitors of GIV peptide binding to Galpha-i3, primary screen, biochemical, fluorescence polarization, FITC-GIV GBA peptide, rat Galphai3 | 90 min; hits give low values; scaled: aluminum fluoride 0%, vehicle 100% | percent of control (FP), % (test concentration not listed) | 0.42% of 210,000 active;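 active = replicate mean at 85% of control or lower, very high polarization wells dropped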;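 also: wells of about 15 µL received 100 nL stock; the first replicate is given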
Target sequence (P08753 whole entry, looked up): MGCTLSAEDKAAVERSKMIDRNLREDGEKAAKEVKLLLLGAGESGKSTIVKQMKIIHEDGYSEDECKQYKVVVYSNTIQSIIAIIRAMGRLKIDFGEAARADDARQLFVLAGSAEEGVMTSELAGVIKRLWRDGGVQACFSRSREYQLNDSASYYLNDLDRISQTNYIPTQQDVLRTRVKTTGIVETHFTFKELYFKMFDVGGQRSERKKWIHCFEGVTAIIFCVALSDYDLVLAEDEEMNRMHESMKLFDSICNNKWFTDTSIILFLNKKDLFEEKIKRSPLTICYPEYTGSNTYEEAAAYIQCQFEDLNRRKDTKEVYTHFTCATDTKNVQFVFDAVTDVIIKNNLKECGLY
HCMV UL50-53 inh = inhibitors of HCMV UL50-UL53 interaction, biochemical, HTRF | HCMV UL50-UL53 nuclear egress complex (human cytomegalovirus) | normalized percent inhibition | inhibition, % (no concentration beside the values) | 0.15% of 190,000 active | AID 1918969, 2023;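 active = both replicates at 50% or more, plus weaker picks with an unusually low signal ratio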;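 also: stock transfer was 100 nL into about 20 µL; 0% = negative control wells and 100% = wells with untagged competitor protein; inactives centre near -12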
Sa growth 42C = S. aureus growth inhibition at 42 and 30 °C, primary screen, LtaS inhibitor project, RN4220, two temperatures; 0.53% of 170,000 active; relative growth, % (concentration not given with the values); OD600, 20 h, 42 °C; hits give low values; AID 720641, 2013;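 active = growth at 42 °C up to 50% and 20 or more points under that at 30 °C, or under 10% at both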;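 also: 300 nL library stock went into each well; scaled to the means of positive and negative controls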
Sa growth 42C second temp = recorded beside Sa growth 42C, whose call it bears; relative growth, %; measured here: growth at 30 °C;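 optical density after 20 h as mean of two plates; 100% = untreated growth and lower means inhibition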
The depositor's hits bear a star; / = not tested or not shown. Rows are unselected, and some 0.83% of all compounds hit somewhere here.

cpd | Compound | GIV Gai3 FP | HCMV UL50-53 inh
1 | CCC(C)(C)NC(=O)C1CCN(S(=O)(=O)c2ccc3c(c2)CCCN3C(C)=O)CC1 | 98 | /
2 | CCOC(=O)c1ccc(N=C2NC(=O)/C(=C/c3ccc(N4CCOCC4)cc3)S2)cc1 | 103 | -7
3 | O=C(COc1ccccc1)N1CCN(c2ncccn2)CC1 | / | -33
4 | O=C1CCCC2=C1C(c1ccccc1)CC(=O)N2c1ccc(F)cc1 (stereo not given) | / | -8
5 | CCc1noc(C)c1C(=O)N1CCc2ccccc21 | / | -11
6 | CC1CCCCN1CCCNC(=O)CN1C(=O)CSc2ccc(S(=O)(=O)N3CCOCC3)cc21 (stereo not given) | 103 | /
7 | Cc1ccc2c(c1)-c1onc(C(=O)N3CCN(c4cc(C)ccc4C)CC3)c1CO2 | 99 | /
8 | Cc1ccc(N2CCN(/N=C\C=C\c3ccccc3)CC2)cc1 | 103 | /
9 | Cc1ccc2[nH]c3nc(=S)[nH]nc3c2c1 | 99 | -51
10 | O=C(c1cccnc1)N1CCC2(CC1)OCCO2 | 101 | -4
11 | COc1cc(C2Nc3ccccc3-c3nc4ccccc4n32)cc(OC)c1OC (stereo not given) | 100 | -2
12 | O=C(Nc1ccccc1N1CCOCC1)c1sc2ccccc2c1Cl | 107 | -6
13 | Cc1ccc(NC(=O)CCNS(=O)(=O)c2ccc3c(c2)CCC(=O)N3)c(Br)c1 | 110 | 1
14 | Cc1oc(-c2cccc(C(F)(F)F)c2)cc1C(=O)Nc1nccs1 | 105 | /
15 | N#Cc1ccc(CSc2nc(N)cc(=O)[nH]2)cc1 | 106 | -4

cpd | Sa growth 42C | Sa growth 42C second temp
1 | 93 | 87
2 | 78 | 93
3 | 86 | 94
4 | 111 | 86
5 | 91 | 94
6 | 106 | 93
7 | 112 | 97
8 | 84 | 84
9 | 78 | 70
10 | 111 | 105
11 | 103 | 94
12 | 111 | 90
13 | 102 | 94
14 | 109 | 96
15 | 104 | 94

Following part
cpd | Compound | GIV Gai3 FP | HCMV UL50-53 inh
16 | O=C(NCc1ccc(F)cc1)C1CCCCN1S(=O)(=O)c1ccc(F)cc1 (stereo not given) | 100 | /
17 | O=C(Nc1c2c(nn1-c1ccc(Cl)cc1)CSC2)c1ccc(S(=O)(=O)N2CCOCC2)cc1 | 102 | -9
18 | CCNC(=O)N(C)Cc1nc(-c2cccc(C)c2)no1 | 109 | 2
19 | O=C(CN1CCC(n2nnc3cc(F)ccc32)CC1)N1CCCc2ccccc21 | 105 | -4
20 | Clc1ccccc1N=C1SCCS1 | 100 | -1
21 | CCn1nc(C(=O)Nc2ccc(F)cc2C)c2ccccc2c1=O | / | -22
22 | NC(=O)C1CCN(C(=O)CCC(=O)c2ccc(Br)cc2)CC1 | / | -21
23 | Fc1ccccc1-c1ccc(SCc2nc(-c3cccc(Br)c3)no2)nn1 | 108 | -8
24 | Cc1nccnc1-c1ccnn1S(=O)(=O)c1ccccc1 | 100 | 10
25 | O=C(Nc1ccccc1)C(=S)Nc1ccccc1 | / | -9
26 | NC(=O)c1ccc(C(=O)c2ccccc2)cc1 | / | -29
27 | CCn1ccc2cc(S(=O)(=O)N3CCCC(C(=O)NCCCOC(C)C)C3)ccc21 (stereo not given) | 105 | 1
28 | Cc1ccc(S(=O)(=O)Nc2ccc3nc(-c4cccc(Cl)c4)oc3c2)cc1 | 100 | -23
29 | O=C(Cn1[nH]c(=O)c2ccccc2c1=O)N1CCSC1=NCc1ccccc1 | / | -11
30 | COc1cc(OC)c(NC(=O)C2CCN(S(=O)(=O)c3cc4c(cc3C)NC(=O)CO4)CC2)cc1Cl | 103 | 3

cpd | Sa growth 42C | Sa growth 42C second temp
16 | 104 | 94
17 | / | /
18 | 114 | 90
19 | 106 | 83
20 | 100 | 85
21 | 90 | 90
22 | 113 | 90
23 | / | /
24 | 94 | 98
25 | 92 | 81
26 | 105 | 83
27 | / | /
28 | 105 | 88
29 | 102 | 94
30 | / | /

Taken from above:
GIV Gai3 FP, #27 = 105
HCMV UL50-53 inh, #24 = 10
HCMV UL50-53 inh, #17 = -9

Part of the list above, with values under each structure:
Fields – GIV Gai3 FP	HCMV UL50-53 inh	Sa growth 42C	Sa growth 42C second temp
27	CCn1ccc2cc(S(=O)(=O)N3CCCC(C(=O)NCCCOC(C)C)C3)ccc21 (stereo not given)
 : 105	1	/	/
19	O=C(CN1CCC(n2nnc3cc(F)ccc32)CC1)N1CCCc2ccccc21
 : 105	-4	106	83
22	NC(=O)C1CCN(C(=O)CCC(=O)c2ccc(Br)cc2)CC1
 : /	-21	113	90
25	O=C(Nc1ccccc1)C(=S)Nc1ccccc1
 : /	-9	92	81
24	Cc1nccnc1-c1ccnn1S(=O)(=O)c1ccccc1
 : 100	10	94	98

(listing goes on)
cpd | Compound | GIV Gai3 FP | HCMV UL50-53 inh
31 | CCCCN(CCCC)CCNC(=O)c1cc(=O)[nH]c2ccc(S(=O)(=O)N3CCCCCC3)cc12 | 106 | /
32 | Cc1cccc(NC(=O)c2sc3nc(-c4ccccc4)cn3c2C)c1C | 115 | /
33 | Cc1ccc2nc(-c3cccs3)c(Nc3c(C)cccc3C)n2c1 | 104 | -4
34 | COc1ccc(Cl)cc1NC(=O)CN(c1ccccc1)S(=O)(=O)N(C)C | / | 0
35 | Cc1onc(-c2c(Cl)cccc2Cl)c1C(=O)NCC(C)(C)C | 105 | -28
36 | Cc1nc(N2CCOCC2)nc2c1C(=O)CC(C)C2 (stereo not given) | 98 | -28
37 | O=C1CSC(=Nc2cccc3ccccc23)N1 | 103 | -31
38 | CC(C)(C)OC(=O)N1CCN(C(=O)C2CCN(c3nccc(C(F)(F)F)n3)CC2)CC1 | 104 | -19
39 | Nc1nc(-c2c(Cl)cccc2Cl)no1 | 105 | -35
40 | O=C(CC1SC(=Nc2ccc(O)cc2)NC1=O)c1ccc(F)cc1 (stereo not given) | 98 | -2
41 | O=C(OCc1ncc(-c2ccccc2)o1)c1ccccc1SCC(=O)N1CCCC1 | / | -28
42 | N#CC1c2ccccc2C=CN1C(=O)C1=CCCCC1 (stereo not given) | 99 | 5
43 | Cc1ccc(C)n1CCN(C(C)C)C(C)C | / | -10
44 | COc1ccc(S(=O)(=O)N(CCC#N)C2CCc3ccccc32)cc1OC (stereo not given) | 102 | -8
45 | COc1ccc(-c2cc(C(=O)Oc3cccc(C)c3C)c3ccccc3n2)cc1 | 97 | -21

cpd | Sa growth 42C | Sa growth 42C second temp
31 | 110 | 100
32 | 93 | 99
33 | 111 | 89
34 | 124 | 85
35 | 93 | 73
36 | / | /
37 | 100 | 94
38 | 94 | 94
39 | 96 | 86
40 | 111 | 103
41 | 85 | 85
42 | 112 | 93
43 | 87 | 94
44 | 98 | 87
45 | 90 | 90

Sorted by value in Sa growth 42C second temp (smallest number first): 5 of the compounds above
entry	mol	GIV Gai3 FP	Sa growth 42C second temp
41	O=C(OCc1ncc(-c2ccccc2)o1)c1ccccc1SCC(=O)N1CCCC1	/	85
33	Cc1ccc2nc(-c3cccs3)c(Nc3c(C)cccc3C)n2c1	104	89
45	COc1ccc(-c2cc(C(=O)Oc3cccc(C)c3C)c3ccccc3n2)cc1	97	90
37	O=C1CSC(=Nc2cccc3ccccc23)N1	103	94
31	CCCCN(CCCC)CCNC(=O)c1cc(=O)[nH]c2ccc(S(=O)(=O)N3CCCCCC3)cc12	106	100

Remaining list, next part.
cpd | Compound | GIV Gai3 FP | HCMV UL50-53 inh
46 | CN1C(=O)c2cc(C(=O)NCc3cccnc3)nn2CC1(C)C(=O)NC1CCCC1 (stereo not given) | 104 | -11
47 | CN1CCN(C(=O)/C(=C/c2cn(S(=O)(=O)N(C)C)c3ccccc23)NC(=O)c2ccccc2)CC1 | 103 | -15
48 | CCCc1nnc2sc(NC(=O)CC)nn12 | 105 | /
49 | CCOC(=O)N1CCC(NC(=O)Cn2c3ccccc3c3cn[nH]c(=O)c32)CC1 | 101 | -10
50 | Cc1onc(-c2ccccc2)c1C(=O)NCC#N | 101 | -15
51 | O=c1cc(CP(=O)(c2ccccc2)c2ccccc2)[nH][nH]1 | / | -18
52 | CCCCn1c(=O)nc2n(-c3ccc(Br)cc3)c3ccccc3cc-2c1=O | 103 | /
53 | Cc1ccc(C(=O)Oc2cccnc2I)cc1 | 101 | -10
54 | O=C(O)C1CC(c2ccccc2)=NO1 (stereo not given) | 107 | 12
55 | CC1CCc2c(sc3ncn(CC(=O)O)c(=O)c23)C1 (stereo not given) | 102 | -12
56 | CC1CC(C(F)(F)F)n2nc(C(=O)O)cc2N1 (stereo not given) | / | 1
57 | O=C(CSc1ccccc1)Oc1ccc2c(c1)OCO2 | / | -33
58 | CCN(CC)C(=O)C1=C(C)Nc2nc3ccccc3n2C1c1cccc(Cl)c1 (stereo not given) | 100 | -5
59 | CCN(CC)Cc1cc(C2N(C(C)=O)c3cccc4cccc(c34)N2C(C)=O)ccc1O | 102 | -24
60 | O=c1nc(SCc2ccccc2Cl)c2c(n1C1CCCCC1)CCC2 | 101 | -13

cpd | Sa growth 42C | Sa growth 42C second temp
46 | / | /
47 | 112 | 76
48 | 123 | 98
49 | 99 | 86
50 | 88 | 85
51 | 93 | 82
52 | 100 | 86
53 | / | /
54 | 77 | 92
55 | / | /
56 | 95 | 87
57 | 69 | 80
58 | 108 | 91
59 | 104 | 99
60 | / | /

Next entries
cpd | Compound | GIV Gai3 FP | HCMV UL50-53 inh
61 | CCCN1C2CCCC1CC(NC(=O)Nc1ccc(SC)cc1)C2 (stereo not given) | 100 | -20
62 | Cc1cc(SCC(=O)O)nc2ccccc12 | / | -9
63 | Cc1ccc(OC(=O)C(CCS(C)(=O)=O)N2C(=O)c3ccccc3C2=O)c(-n2nc3ccccc3n2)c1 (stereo not given) | 96 | -2
64 | O=C(NCCCN1CCN(c2ccc(F)cc2)CC1)c1sc2ncccc2c1-n1cccc1 | 100 | /
65 | COc1ccc(N2CCSC2C(=O)NN)cc1 (stereo not given) | 94 | -7
66 | CCCCNc1nc(C(=O)OCC)nc2onc(CC)c12 | 111 | -28
67 | COc1cc(C(=O)NNc2ccccc2)cc(OC)c1OC | 99 | 3
68 | N#CC1=C(N)Oc2n[nH]c(-c3ccccc3)c2C12C(=O)Nc1ccc(Cl)cc12 (stereo not given) | 101 | -16
69 | Clc1ccc(Cl)c(-c2ccc(CNCc3ccco3)o2)c1 | 102 | 1
70 | O=C(Nc1ccccc1)c1cccc(I)c1 | 102 | 3
71 | C=CCn1c(SCc2ccc(C(=O)O)cc2)nnc1-c1cccc(OC)c1 | / | -4
72 | O=C(CN1C(=O)/C(=C/c2cccc(Br)c2)SC1=S)NCCc1ccccc1 | 106 | /
73 | CCC(=O)N1CCCc2cc(S(=O)(=O)N3CCC(C(=O)Nc4ccccc4CC)CC3)ccc21 | 103 | /
74 | Cc1ccccc1OC(=O)c1ccc2c(c1)C(=O)N(C)C2=O | 99 | -106
75 | CC(C)S(=O)(=O)c1csc(C(=O)Nc2ccc(F)cc2)c1N | 106 | 29

cpd | Sa growth 42C | Sa growth 42C second temp
61 | 89 | 87
62 | 120 | 87
63 | 113 | 89
64 | 97 | 83
65 | 81 | 102
66 | / | /
67 | 83 | 57
68 | / | /
69 | / | /
70 | 96 | 114
71 | 133 | 92
72 | 103 | 94
73 | 106 | 100
74 | 100 | 101
75 | 100 | 86

Overlap with the part before: 3 entries, then new ones.
cpd | Compound | GIV Gai3 FP | HCMV UL50-53 inh
73 | CCC(=O)N1CCCc2cc(S(=O)(=O)N3CCC(C(=O)Nc4ccccc4CC)CC3)ccc21 | 103 | /
74 | Cc1ccccc1OC(=O)c1ccc2c(c1)C(=O)N(C)C2=O | 99 | -106
75 | CC(C)S(=O)(=O)c1csc(C(=O)Nc2ccc(F)cc2)c1N | 106 | 29
76 | Cc1nnc(Nc2ccccc2O)c2ccccc12 | 105 | -31
77 | CCCc1cc(=O)n2nc(N(C)CC(=O)N3CCCC3)sc2n1 | 98 | -4
78 | Cc1oc2c(C)c3oc(=O)c(CC(=O)N4CCCCC4)c(C)c3cc2c1C | 100 | -17
79 | S=C(Nc1ccccc1)N(Cc1ccccc1)Cc1ccccc1 | 100 | /
80 | Cc1ccc2c(c1)c1c(c(=O)n(-c3ccccc3)c(=O)n1CC(=O)c1ccccc1)n2C | 99 | /

cpd | Sa growth 42C | Sa growth 42C second temp
73 | 106 | 100
74 | 100 | 101
75 | 100 | 86
76 | / | /
77 | 103 | 96
78 | 92 | 90
79 | 82 | 66
80 | 90 | 97
